# Compound activity as filed in PubChem.
# PINK1 modulator = A Quantitative High throughput Screen to Identify Chemical Modulators of PINK1 Expression. PINK1 immunofluorescence, high-content cytometry, 24 h. Potency, µM (highest dose often 76.6 µM), inactives show at the highest dose activation (PINK1 increase), actives largely listed as activators. actives 0.2% (n = 410,000). AID 624263, 2012; active = well fitted activation curve with a large enough effect; inconclusive = small, poorly fitted or top-dose-only effect; inactive = flat fitted curve, though single readings scatter; cell line not stated here;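 further: potency means the concentration at half of the fitted maximal effect; % of control where 0% means no effect; nearly all actives have a fitted effect of over 65% in size; a mitochondrial uncoupler was the plate control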
#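 A stable cell line was treated with compounds at 5 concentrations for 24 hours, with CCCP as control. PINK1 levels and mitochondrial localization were measured by immunofluorescence with mitochondrial, cell and nuclear markers after fixation, read by laser-scanning cytometry.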
# TRPV1 PAM = HTS Assay for Compounds that Act as Potentiators of the Vanilloid Receptor 1 | Transient receptor potential cation channel subfamily V member 1 (Homo sapiens), Q8NER1 | TRPV1-expressing cells, Fluo-8 calcium influx, capsaicin EC20 potentiation; host cell line not named in the record; control for the full effect not named in the record | potentiation, % at 8.33 µM | actives 0.02% (n = 320,000) | AID 540277, 2011; active means potentiation above 80%; inconclusive means 30% to 80%; inactive means below 30%; further: 0% is about no effect
# Target sequence (Q8NER1 whole entry, looked up): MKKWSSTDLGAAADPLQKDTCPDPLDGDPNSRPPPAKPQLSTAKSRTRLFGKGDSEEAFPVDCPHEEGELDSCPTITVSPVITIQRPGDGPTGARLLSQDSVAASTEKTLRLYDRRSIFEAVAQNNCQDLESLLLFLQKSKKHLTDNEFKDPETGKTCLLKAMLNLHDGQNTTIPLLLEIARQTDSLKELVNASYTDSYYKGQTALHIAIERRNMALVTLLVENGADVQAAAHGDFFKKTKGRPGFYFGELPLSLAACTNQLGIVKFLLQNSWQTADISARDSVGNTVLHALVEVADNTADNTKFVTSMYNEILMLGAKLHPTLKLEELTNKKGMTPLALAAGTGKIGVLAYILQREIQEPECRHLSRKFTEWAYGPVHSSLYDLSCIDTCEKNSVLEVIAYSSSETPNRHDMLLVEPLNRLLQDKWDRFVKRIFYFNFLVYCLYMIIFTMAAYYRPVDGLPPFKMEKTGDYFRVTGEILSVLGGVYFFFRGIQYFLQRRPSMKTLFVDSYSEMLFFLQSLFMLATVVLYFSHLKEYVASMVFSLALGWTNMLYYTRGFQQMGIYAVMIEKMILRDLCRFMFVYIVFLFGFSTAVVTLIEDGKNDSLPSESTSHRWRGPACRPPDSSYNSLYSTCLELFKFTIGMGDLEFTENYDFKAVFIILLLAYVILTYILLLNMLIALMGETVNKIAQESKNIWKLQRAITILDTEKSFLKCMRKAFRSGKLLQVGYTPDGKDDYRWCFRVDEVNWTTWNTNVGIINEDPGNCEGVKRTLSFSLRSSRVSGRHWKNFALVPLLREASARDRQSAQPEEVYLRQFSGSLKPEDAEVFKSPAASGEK
#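 Fluo-8 calcium influx in TRPV1-expressing cells, kinetic read (ex 480/em 520 nm). Compound added and read 3 min for agonist activity, followed by capsaicin at EC20 final and 2 min further read for enhancement.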
# Sfp inh = qHTS Assay for Inhibitors of Bacillus subtilis Sfp phosphopantetheinyl transferase (PPTase) | 4'-phosphopantetheinyl transferase ffp (Bacillus subtilis), Q9F4F7 | Biochemical Sfp PPTase activity, qHTS | Potency, µM, inactives show max response, negative = inhibition, actives largely listed as inhibitors | actives 3.5% (n = 310,000); active means well fitted inhibition curve with a large enough effect; inconclusive means small, poorly fitted or top-dose-only effect, or another doubt; inactive means no such curve, though single readings can be large or run the other way;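 further: the enzyme is Sfp with the accession as filed and its product quenches rhodamine fluorescence; potency means the concentration at half of the fitted maximal effect; 0% = enzyme reaction without inhibitor and -100% = no enzyme wells; top concentration of the series not given in the record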
#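 Reaction rates are the 30-min fluorescence difference (ex 525, em 598 nm) in wells containing 15 nM Sfp, 5 uM rhodamine-CoA and 12.5 uM BHQ-2-YbbR at pH 7.6 with 10 mM MgCl2.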
# CtBP-E1A inh = qHTS Assay for Inhibitors of the CtBP/E1A Interaction; CtBP / adenovirus E1A interaction (AlphaScreen); AlphaScreen GST-E1A/His-CtBP binding, 1536-well; hits give low values; control for the full effect not named in the record; activity change, % (concentration not given with the values); actives 0.49% (n = 340,000); AID 651724, 2012; in the data active means activity change below about -65%; inconclusive means about -30% to -65%; inactive means above about -30%; further: on the % scale 0 is the no-effect control and ±100 the full control effect
#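 Homogeneous bead-based format: GST-tagged E1A captured on glutathione donor beads, His-tagged CtBP on nickel acceptor beads; compounds precede bead addition by 2 h at 37 °C.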
# D2 ag = Beta-Arrestin HTS for Positive Allosteric Modulators of the Human D2 Dopamine Receptor: Agonists. activation, % (test concentration not listed). DiscoveRx PathHunter D2 beta-arrestin, luminescence, 90 min; 100% = 57 uM dopamine signal. actives 0.084% (n = 360,000); in the data active = activation above about 40%; inconclusive = about 15% to 40%; inactive = below about 15%; further: compound concentration not given in the record; the text of the record calls up to 30% inactive
#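 Agonist mode: compounds alone added to overnight-plated D2 PathHunter cells for 90 min at 37 C, with 57 uM final dopamine (EC100) defining full response. Beta-arrestin recruitment detected by chemiluminescent reagent, read after 1 h at ambient temperature.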
# D2 PAM = Beta-Arrestin HTS for Positive Allosteric Modulators of the Human D2 Dopamine Receptor: Potentiators. D(2) dopamine receptor (Homo sapiens), P14416. DiscoveRx D2 beta-arrestin cells, luminescence, 90 min; 100% = 57 uM dopamine signal. potentiation, % (test concentration not listed). actives 0.23% (n = 360,000); active = potentiation of 50% or more; inconclusive = 30% to 50%; inactive = 30% or less;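 further: compound concentration not given in the record; tested on top of an EC20 dose of dopamine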
#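 PathHunter beta-arrestin assay in DiscoveRx D2 cells. Compounds were added with an EC20 of dopamine (50 nM final) for 90 min at 37 deg C. Luminescence was read 1 h after detection reagent, with 57 uM dopamine as the EC100 control.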
# Six1-Eya2 inh = qHTS Assay for Inhibitors of the Six1/Eya2 Interaction; actives 0.56% (n = 360,000); AlphaScreen GST-Six1/His-Eya2 binding, biochemical; hits give low values; control for the full effect not named in the record; activity change, % (no concentration beside the values); Homeobox protein SIX1 (Homo sapiens) + Protein phosphatase EYA2 (Homo sapiens), …; in the data active = activity change below about -65%; inconclusive = about -30% to -65%; inactive = above about -30%; further: on the % scale 0 is the no-effect control and ±100 the full control effect; compound concentration not given in the record
#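 AlphaScreen luminescence read after one hour at 37 °C in darkness. Pin-transferred compounds met GST-Six1 and His-Eya2 protein (5X stock 250 nM/500 nM) plus glutathione donor and Ni-chelate acceptor beads (5X, 50 ug/mL).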
# Numbers without * were called inactive; ? = inconclusive; · = no result given; [ ] = another dose, or the depositor's remark.
SMILES,PINK1 modulator,TRPV1 PAM,D2 ag,Six1-Eya2 inh,CtBP-E1A inh,D2 PAM,Sfp inh
COc1ccc2nc(NS(=O)(=O)c3ccc(NC(C)=O)cc3)sc2c1,?,12.8,-3.8,-0.7,2.1,5.1,15.1%
Cc1ccc(C)c(OCCC(=O)NNC(=O)c2cc(C)oc2C)c1,2.3%,-5.5,-4.7,4.0,-2.3,-5.0,·
O=C(c1ccc(-c2cccc(C(F)(F)F)c2)o1)N1CCN(c2ccccc2O)CC1,?,-11.1,-0.7,-8.0,-5.7,-14.1,4.0%
CCc1ccc(C(C(=O)NC2CCCC2)N(CCOC)C(=O)CCC(=O)Nc2cc(C)on2)cc1 (centres undefined),2.7%,15.9,13.0,-7.1,0.0,-2.3,17.9%
O=C(c1ccccc1)N1CCN(c2ncnc3sc4c(c23)CCC4)CC1,0.1%,-19.9,-1.7,6.4,-4.3,11.6,-10.9%
CC1(N2CCOCC2)CC2(O)C(=[N+]1[O-])CCc1c2no[n+]1[O-] (centres undefined),-0.4%,-9.5,3.5,-2.5,-13.2,3.7,-4.7%
COc1ccc(NS(=O)(=O)c2cc(Cl)ccc2Cl)cc1S(=O)(=O)N1CCCCC1,-0.5%,6.5,-3.0,-2.1,7.0,-9.4,21.9%
COC(=O)c1sccc1N/C=C(\C#N)S(=O)(=O)C(C)(C)C,-0.2%,-4.7,0.8,6.5,10.9,-12.9,17.9%
COC(=O)NC(=S)Nc1ccc(Oc2ccc(Cl)cc2Cl)c(Cl)c1,12.9%,4.0,-1.3,-0.7,6.2,-6.9,0.9%
O=[N+]([O-])c1ccc(O)c(C=NN2CCCCC2)c1,3.3%,·,-5.9,-18.7,-5.8,-6.9,·
CCCCCCCCNCCS(=O)(=O)NCc1ccccc1,-0.9%,·,-2.5,7.0,12.4,-18.8,·
CCCCN1C(=O)C(CC(=O)NC2CCCC2)CC(C(=O)N(CC)CC)=C1C (centres undefined),1.5%,·,-9.6,9.4,1.7,0.6,·
CCOC(=O)c1c(C)[nH]c(C(=O)N2CCN(CC)CC2)c1C,0.0%,4.9,-1.2,-0.8,-8.1,-5.7,-0.3%
CC1Oc2ccccc2N(CC(=O)NCc2ccccc2)C1=O (centres undefined),-0.5%,-18.3,-5.4,4.2,-22.1,-9.1,13.8%
O=C(C1CCCN(c2ncnc3c2nc2n3CCCCC2)C1)N1CCN(c2cccc(Cl)c2)CC1 (centres undefined),3.5%,-5.1,-0.3,?,·,-3.9,-16.8%
Cc1cc(N2C(=O)C3CC=CC(C)C3C2=O)no1 (centres undefined),1.4%,-2.6,-2.3,7.1,4.0,3.7,13.4%
CCOC(=O)N1CCN(CC(O)COc2c(C)cccc2C)CC1 (centres undefined),1.2%,0.4,-0.6,24.8,41.4,1.6,-10.1%
COc1cccc(CCC(=O)Nc2cc3c(cc2C(=O)O)OCCCO3)c1OC,0.8%,4.8,-2.2,4.1,-3.1,-21.3,·
O=C(c1ccco1)N1CCN(C23CC4CC(CC(C4)C2)C3)CC1,1.5%,-21.5,-1.2,2.9,6.7,-9.0,9.1%
O=C(CSc1ccc2c(c1)OCCO2)Nc1cccnc1Cl,4.5%,7.0,-6.7,38.2,·,-2.5,12.0%
Cc1ccc(NC(=O)c2sc3nc(C)nc(N4CCN(c5ccccn5)CC4)c3c2C)c(C)c1,1.0%,-10.6,1.5,-25.5,-20.8,-2.5,?
CSc1ccc(-c2nc(CSCC(=O)NCCCN3CCOCC3)c(C)o2)cc1,0.1%,-8.6,-2.9,-0.7,-0.8,-22.3,8.6%
FC(F)(F)c1ccc(-c2csc(-c3ccno3)n2)cc1,5.9%,·,-3.1,13.4,·,-16.4,-11.0%
CS(=O)(=O)c1ccc(C(=O)NCC2(N3CCCCC3)CCCCC2)cc1,-0.7%,12.9,-5.1,-1.1,-14.0,-7.8,-10.0%
CCOC(=O)CSc1n[nH]c(NC(=O)c2ccccc2)n1,1.0%[38.3 µM],-1.5,-1.7,5.1,6.6,-7.9,-21.1%
CC(C)CCC(C)N=Cc1c(O)n(Cc2ccccc2)c(=O)c2ccccc12 (centres undefined),0.9%,-6.1,-2.4,-18.6,-27.0,3.6,4.1%
O=[N+]([O-])c1ccc(N=Cc2ccc(Br)c([N+](=O)[O-])c2)cc1,15.9%,1.4,-4.2,-4.5,-2.2,-12.9,0.4%
COCCn1cnnc1SCC(=O)Nc1cc(OC)c([N+](=O)[O-])cc1C,-0.8%,?,1.8,0.8,-5.8,-9.7,9.2%
Cc1ccc2oc(=O)c3cc(C(=O)NCCCN4CC(C)CC(C)C4)sc3c2c1 (centres undefined),2.7%,1.4,-0.6,-1.4,0.9,-36.0,-7.7%
COc1ccc(NC(=O)C(=O)c2cn(CC(=O)N3CCCC3)c3ccccc23)cc1,4.6%,2.9,-5.8,-11.8,-20.9,2.1,12.5%

# Profiles from above. Values in the order: PINK1 modulator	TRPV1 PAM	D2 ag	Six1-Eya2 inh	CtBP-E1A inh	D2 PAM	Sfp inh
# `O=[N+]([O-])c1ccc(N=Cc2ccc(Br)c([N+](=O)[O-])c2)cc1` is entered as 15.9%	1.4	-4.2	-4.5	-2.2	-12.9	0.4%
# `Cc1ccc2oc(=O)c3cc(C(=O)NCCCN4CC(C)CC(C)C4)sc3c2c1` (centres undefined) is entered as 2.7%	1.4	-0.6	-1.4	0.9	-36.0	-7.7%

# (next part)
SMILES,PINK1 modulator,TRPV1 PAM,D2 ag,Six1-Eya2 inh,CtBP-E1A inh,D2 PAM,Sfp inh
Cc1nc(N2CCC3(CC2)OCCO3)c2nnn(Cc3ccccc3F)c2n1,0.0%,-3.2,0.9,3.2,8.5,4.0,-4.3%
O=C(Cc1cccs1)N=Nc1c(O)[nH]c2ccc(Br)cc12,1.4%,2.8,-8.1,-13.0,-14.4,-7.0,1.9%
CN1CCC(N(C)C(=O)c2ccc(Cl)c(S(=O)(=O)N3CCOCC3)c2)CC1,1.6%,-3.2,-5.6,-1.6,-1.9,-14.5,·
COc1cc(C2=NOC(C(=O)NCc3ccc(F)cc3)C2)cc(OC)c1OC (centres undefined),5.5%[38.3 µM],6.7,0.7,0.0,-1.5,-7.6,-1.3%
O=C(O)C1CCN(S(=O)(=O)c2cccc3cccnc23)CC1,0.0%,5.5,2.5,2.7,14.5,-6.9,9.4%
C=CCn1c(=NC(=O)c2ccco2)sc2cc(C(=O)OC)ccc21,8.4%,16.0,0.1,9.2,0.5,-5.1,-24.5%
Clc1ccc(C[n+]2cc(-c3ccccc3)n3c2CCC3)cc1Cl,-0.4%,10.9,0.6,0.9,2.0,-33.4,6.3%
O=C1CCCC2=C1C(c1ccncc1)n1c(nc3ccccc31)N2 (centres undefined),5.0%,1.1,-2.3,0.1,14.8,-6.9,23.2%
Cc1ccccc1C(=O)c1cccn1CC(=O)NC(C)c1ccc2c(c1)OCCO2 (centres undefined),-1.9%,3.5,-2.8,8.5,-20.1,-8.3,-12.2%
O=C(c1ccc(F)cc1Cl)N1CCN(CCc2ccccc2)CC1,-1.4%,26.7,-0.4,3.4,5.3,-9.1,-0.6%
COc1ccc2[nH]c(=O)c(CN(C(=O)c3cccnc3)c3ccc(C)c(C)c3)cc2c1,-0.8%,4.3,4.5,-2.0,-1.2,-0.4,16.0%
C=CCn1c(=N)n(CC(=O)c2ccccc2)c2ccccc21,-1.1%,29.5,-4.8,28.8,4.0,-17.8,1.4%
COc1cccc(CNC(=O)CN2C(=O)COc3ccc(S(=O)(=O)N4CCCC4)cc32)c1,-0.5%,5.3,-4.6,1.0,5.1,-0.8,16.9%
COc1ccc(-c2csc(NC(=S)NC(=O)/C=C/c3ccco3)n2)cc1Br,-2.3%,-3.2,-1.2,-4.2,3.2,-6.7,-25.6%
O=C1c2ccccc2C(=O)N1CCCn1c(=O)oc2ccccc21,3.0%[38.3 µM],-3.6,0.8,4.0,9.6,-2.6,-4.9%
O=C(CSc1ccccn1)Nc1ccc2c(c1)OCO2,-0.5%,-4.5,0.6,2.7,7.9,-0.7,8.4%
O=S(=O)(c1ccc2c(c1)OCCO2)N1CCNCC1,-0.6%,-11.7,-2.7,6.0,-1.1,5.5,6.7%
O=C1CSC(c2ccc([N+](=O)[O-])cc2)N1c1ccccc1F (centres undefined),2.2%,-2.1,2.2,3.5,-0.4,9.7,14.4%
CCCCCCCC(=O)Oc1ccc(C(=O)Nc2cc(C)on2)cc1,1.6%,-0.5,-0.4,10.8,6.1,-0.4,10.4%
CCC(C)[C@@H](C(=O)NCC1CCC(C(=O)O)CC1)n1nnc2ccccc2c1=O (some centres undefined),3.7%,28.1,-2.7,-4.1,12.5,12.6,18.4%
CCc1ccc(NC(=S)N(Cc2cccnc2)Cc2ccco2)cc1,-0.1%,28.7,-1.7,-3.6,-0.9,-5.9,6.1%
COc1ccc([N+](=O)[O-])cc1C(=O)Nc1ccc(OCC(=O)N2CCOCC2)cc1,1.7%,-1.5,-1.7,2.8,3.4,-14.4,-8.3%
Cc1ccccc1C(=O)Nc1ccc(S(=O)(=O)N2CCCC2)cc1,-0.5%,-27.3,5.6,-0.3,8.9,7.0,-4.0%
O=C(NCc1ccc(F)cc1)NC(=O)c1ccc(Cl)cc1,2.9%,7.1,-3.4,-0.4,-2.7,-14.8,-13.5%
CCc1ccc(C(=O)COC(=O)C2CCN(c3ccc(C(F)(F)F)cn3)CC2)cc1,3.0%,10.0,-2.9,2.8,-10.7,-2.1,·
Cc1sc2nc(C3CC3)nc(N3CCN(C(=O)c4ccc(Cl)cc4)CC3)c2c1C,1.8%,-15.1,-8.2,-17.9,-2.1,-13.1,-18.2%
CNS(=O)(=O)/C=C/c1ccccc1,-1.0%,-4.9,-0.3,4.9,-0.6,-2.0,1.7%
